# Screening results as filed in PubChem.
# Menin MLL FP FL: menin-MLL binding inhibition, fluorescein peptide | Fluorescence polarization, fluorescein-MLL peptide displacement from menin | FP activity change, % at 61.4 µM | 290,000 tested, under 10 active | AID 1766; inconclusive = falling polarisation curve, or a change in total fluorescence; inactive = total fluorescence flat and polarisation flat or rising; no compound was filed as active; the % refers to the polarisation; negative = inhibition;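 note: % of control where 0% means no effect; inhibitors lower the polarisation; unlabelled MLL peptide was the positive control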
# gsp antag: antagonizes gsp, the McCune-Albright syndrome mutation. gsp-mutant cells, cAMP HTRF, 30 min; control for the full effect not named in the record. Potency, µM (highest dose often 76.9 µM), inactives show top-dose activity change, negative = inhibition, hits mostly inhibitors. actives 0.4% (n = 340,000); active = falling curve of any shape with a large fitted effect; inconclusive = falling curve, mostly with a smaller effect; inactive = flat or rising curve; cell line not stated here;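 note: intracellular cAMP measured with PDE inhibitor Ro 20-1724 present during compound exposure; potency is the fitted concentration of half-maximal effect; % is set by controls: 0 for no effect and ±100 for the full control effect; nearly all actives have a fitted effect of over 65% in size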
#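 HTRF cAMP read-out (cAMP-d2 plus anti-cAMP antibody-K in lysis buffer, 30 min RT). Before lysis, cells are exposed to compounds with […] for 30 min at 37C in DPBS containing Ca/Mg, BSA and Tween 20.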
# Sfp PPTase inh: inhibitors of Bacillus subtilis Sfp phosphopantetheinyl transferase; Q9F4F7; Biochemical Sfp PPTase activity, qHTS; Potency, µM, for inactives: max response, negative = inhibition, usual class: inhibitors; actives 3.5% (n = 310,000); active = well fitted inhibition curve with a large enough effect; inconclusive = small, poorly fitted or top-dose-only effect, or another doubt; inactive = no such curve, though single readings can be large or run the other way;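 note: the enzyme is Sfp with the accession as filed and its product quenches rhodamine fluorescence; potency is the fitted concentration of half-maximal effect; 0% = enzyme reaction without inhibitor and -100% = no enzyme wells; top concentration of the series not given in the record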
#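 With Hepes-Na pH 7.6 buffer containing 10 mM MgCl2, Sfp (15 nM) modified BHQ-2-YbbR (12.5 uM) using rhodamine-CoA (5 uM). Two reads 30 minutes apart at 525/598 nm yielded each well's rate.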
# gsp agonist: agonists of gsp mutant (McCune-Albright syndrome); gsp mutant cells, cAMP HTRF, 30 min; control for the full effect not named in the record; actives 0.13% (n = 340,000); Potency, µM (top dose mostly 76.9 µM), inactives show top-dose activation (cAMP increase), usual class: activators; active = well fitted activation curve with a large enough effect; inconclusive = small, poorly fitted or top-dose-only effect, or another doubt; inactive = no such curve, though single readings can be large or run the other way; cell line not stated here;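 note: phosphodiesterase inhibitor Ro 20-1724 added with compounds to block cAMP breakdown; potency is the fitted concentration of half-maximal effect; nearly all actives have a fitted effect of over 60% in size; about a fifth of the inactives were tested at one dose only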
#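 Cells in DMEM/10% FBS with G418 were pretreated with compounds in DMSO plus […] (300 uM stock) for 30 min at 37C. cAMP was measured by HTRF (cAMP-d2 plus anti-cAMP antibody-K) after 30 min at room temperature.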
# ClpP mod: qHTS Assay for Activators of ClpP; ATP-dependent Clp protease proteolytic subunit (Bacillus subtilis (strain 168)), P80244; purified B. subtilis ClpP, FRET peptide cleavage, 20 min; Potency, µM (doses to about 57.5 µM), without a hit: at the top dose activity change, negative = active; actives 1.9% (n = 340,000); AID 651965, 2013; active = well fitted falling curve with a large enough effect; inconclusive = small, poorly fitted or top-dose-only effect; inactive = no such curve, though single readings can be large or run the other way; note: potency is the fitted concentration of half-maximal effect; the source files actives as falling curves though it sought activators and does not explain the sign; nearly all actives have a fitted effect of over 65% in size; many hits overshoot -100%
# Target sequence (P80244 whole entry, looked up): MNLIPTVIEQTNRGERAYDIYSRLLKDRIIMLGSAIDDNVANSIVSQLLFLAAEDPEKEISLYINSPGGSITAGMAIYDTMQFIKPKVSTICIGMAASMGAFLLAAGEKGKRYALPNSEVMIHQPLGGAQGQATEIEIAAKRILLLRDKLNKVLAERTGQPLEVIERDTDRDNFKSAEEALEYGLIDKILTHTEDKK
#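 FRET quenching reversal measured ClpP activation: 10 microg/mL B. subtilis ClpP at pH 8 with the FRET-FV decapeptide, read at 430 nm after 320 nm excitation. The 20-min minus 0-min signal was scaled between DMSO/no-enzyme wells and ADEP (5.8 microM final).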
# TRPV1 PAM: enhances activation of the human vanilloid receptor TRPV1. TRPV1-expressing cells, Fluo-8 calcium influx, capsaicin EC20 potentiation; host cell line not named in the record; control for the full effect not named in the record. AID 540277. Q8NER1. potentiation, % at 8.33 µM. actives 0.02% (n = 320,000); active means potentiation above 80%; inconclusive means 30% to 80%; inactive means below 30%; note: 0% is about no effect
#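 TRPV1-expressing cells were cultured overnight at 35.5C and loaded with Fluo-8 calcium dye for 40 to 90 min at room temperature. After a 10 s baseline, compound was added and calcium influx was read kinetically for 3 min (ex 480/em 520 nm).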
# TRPML1 blocker: blocks the human TRPML1 channel; Q9GZU1; TRPML1-inducible cells, Ca2+ dye fluorescence, FDSS; stronger effect = lower value; inhibition of EC80 agonist-evoked calcium signal; activity change, negative = inhibition, % (no concentration beside the values); actives 0.02% (n = 390,000); AID 624415; in the data active means activity change below about -50%; inconclusive means about -30% to -50%; inactive means above about -30%;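 note: stimulus is agonist 54-4 at its EC80 concentration; % is set by controls: 0 for no effect and ±100 for the full control effect; compound concentration not given in the record; the text of the record puts the active cut at -80%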
# Target sequence (Q9GZU1 whole entry, looked up): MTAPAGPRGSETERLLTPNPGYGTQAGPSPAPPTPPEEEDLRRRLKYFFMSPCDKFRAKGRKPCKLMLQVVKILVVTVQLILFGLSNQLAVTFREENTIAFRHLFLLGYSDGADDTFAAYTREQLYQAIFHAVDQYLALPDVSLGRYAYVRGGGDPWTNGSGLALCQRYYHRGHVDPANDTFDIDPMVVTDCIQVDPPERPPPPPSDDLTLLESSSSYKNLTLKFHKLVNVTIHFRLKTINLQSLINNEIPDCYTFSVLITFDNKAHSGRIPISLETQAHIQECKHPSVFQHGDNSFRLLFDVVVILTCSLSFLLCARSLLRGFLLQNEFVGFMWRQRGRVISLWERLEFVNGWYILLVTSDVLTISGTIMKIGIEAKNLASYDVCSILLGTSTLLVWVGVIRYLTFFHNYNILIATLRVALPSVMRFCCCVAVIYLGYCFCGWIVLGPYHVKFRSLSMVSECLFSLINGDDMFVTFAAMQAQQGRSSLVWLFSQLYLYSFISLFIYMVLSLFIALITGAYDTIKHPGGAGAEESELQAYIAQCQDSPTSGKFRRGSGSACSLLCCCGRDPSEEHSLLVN
#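 TRPML1-DL cells, Tet-induced overnight (~16 h, 37 °C) at 1,500 cells/well, were loaded with Ca8 no-wash dye plus quencher for 45-90 min at room temperature. Compounds were pinned during FDSS kinetic reading; agonist 54-4 at EC80 (4 uM final) then added.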
# The depositor's hits bear a star; u = inconclusive; x = not tested or not shown; [ ] = another dose, or the depositor's remark. Outcome played no part in choosing rows; about 4.9% have a hit in one of these screens.
SMILES,Menin MLL FP FL,gsp antag,Sfp PPTase inh,gsp agonist,ClpP mod,TRPV1 PAM,TRPML1 blocker
N#Cc1c(-c2ccco2)cc(-c2ccc(F)cc2)nc1N,12.5,5.1%,28.2µM*,-19.4%,35.5µM*,10.9,0.2
CCN(CC(=O)Nc1ccc(OC)cc1)C(=O)c1cccc(S(=O)(=O)N2CCN(c3ccccc3)CC2)c1,x,x,x,-59.4%[inhibitor],-4.9%,x,-26.0
O=C(N/N=C/c1ccc(-c2ccccc2C(=O)O)o1)c1cccs1,14.5,-9.2%,50.1µM*,-29.2%,x,-11.6,-7.1
O=C(COc1ccc2c3c(c(=O)oc2c1)CCC3)NCc1cccnc1,x,-7.8%,15.4%,u,3.9%,2.0,-7.2
Cc1ccc(C(=O)O)cc1S(=O)(=O)N1CCSCC1,0.7,5.3%,18.6%,-4.3%,1.2%,-1.0,-6.3
O=C(c1cccs1)N1CCN(c2ccc(F)cc2)CC1,1.3,-5.0%,9.8%,17.6%,-0.2%,-7.6,3.6
CN(C1CCCCC1)S(=O)(=O)c1ccc(NC(=O)C2CCCCC2)cc1,4.7,9.1%,-8.8%,-62.6%[inhibitor],0.4%,-13.5,-5.8
CCC1Sc2ccc(S(=O)(=O)CCC(=O)NCc3ccc(C)o3)cc2NC1=O (stereo not given),5.3,-5.6%,-21.9%,18.8%,-0.4%,1.8,-11.4
Cc1c(NC(=O)c2cc(Br)ccc2Cl)cccc1-n1cnnn1,x,23.8%,x,-35.1%[inhibitor],2.9%,x,8.8
CCOC(=O)c1c(C)c(C(=O)NCc2ccc3c(c2)OCO3)c(C)n1C,4.4,-10.0%,5.7%,14.2%,-2.6%,0.0,-3.4
Nc1cc(S(=O)(=O)c2ccc(N3CCCCC3)c(N)c2)ccc1N1CCCCC1,x,x,x,-46.5%[inhibitor],3.7%,x,3.3
CCOC(=O)CSc1nc2c(sc(=S)n2CCc2ccccc2)c(=O)n1Cc1ccco1,2.1,-9.6%,u,5.5%,-1.1%,6.2,18.1
O=S(=O)(NCc1ccccn1)c1ccc2c(c1)OCCO2,-2.3,-2.8%,-5.8%,-4.0%,-2.0%,10.2,18.7
CCN(CC)S(=O)(=O)c1ccc(N2CCOCC2)c(NS(=O)(=O)c2ccc(OC)cc2)c1,0.8,12.6%,14.0%,u,0.8%,26.3,x
COc1cc(F)cc(-c2ccc3c(c2)c(C#Cc2ccsc2)c(-c2cc(OC)cc(OC)c2)n3C)c1,x,8.5%,x,-16.1%,4.5%,x,-9.0
CCCCn1c(N)c(Sc2ccc([N+](=O)[O-])cc2)c(=O)[nH]c1=O,-0.9,-0.1%,-3.3%,4.7%,x,15.9,26.4
O=C(/C=C/c1ccco1)Nc1ccc(Oc2ccc(Cl)cc2)cc1,3.6,u,-7.7%,5.4%,0.4%,-2.3,1.7
COc1ccc(-c2cc(C(F)F)n3ncc(C(=O)NCC4CCCO4)c3n2)cc1 (stereo not given),4.5,-6.2%,11.2%,20.7%,22.4µM*,-10.7,-3.8
COc1ccc(CCC(=O)NC2CCCN(Cc3ccc(Cl)cc3)C2)cc1OC (stereo not given),5.3,1.1%,9.6%,15.0%,1.4%,7.0,x
CCN(Cc1ccccc1)C(=O)CCS(=O)(=O)c1ccc2c(c1)n(C)c(=O)c(=O)n2C,1.6,1.1%,1.3%,-5.9%,-25.2%,10.3,1.3
O=C(CN(C(=O)Cn1nnc(-c2ccc(F)cc2)n1)c1cnc2ccccc2c1)NCC1CCCO1 (stereo not given),-1.1,2.3%,10.8%,39.0%,-0.1%,4.2,-0.3
CCOC(=O)c1sc(Nc2ccccc2)nc1C,2.2,-2.4%,-7.8%,8.3%,-12.1%,1.8,-22.3
CCN(CC(=O)Nc1ccc2c(c1)OCCO2)CC(=O)Nc1ccccc1C(F)(F)F,x,7.9%,x,2.2%,0.6%,x,8.2
Cc1ccc2c(c1)cc1c(=O)n(CC(=O)N3CCCC3)nc(C)n12,x,-1.6%,10.1%,u,-12.8%,1.6,-2.4
O=C1CC(NCc2ccc3c(c2)OCO3)C(=O)N1Cc1ccc2c(c1)OCO2 (stereo not given),0.6,28.2µM*,2.0%,-5.6%,-0.2%,-12.1,-5.4
CN1C(=O)S/C(=C/c2ccccc2OCc2ccc(C(=O)O)cc2)C1=O,-0.1,31.6µM*,5.5%,-1.6%[15.4 µM],x,-10.2,-8.9
COc1ccccc1NC(=O)c1ccc(COc2ccc3c(c2)CCC3)cc1,-1.9,4.4%,u,6.7%,218.7%,12.9,-3.8
O=C(c1ccc(Cl)c(S(=O)(=O)N2CCCCCC2)c1)N1CCN(c2ccc(O)cc2)CC1,x,u,x,10.2%,-0.9%,-10.2,-11.4
COc1ccccc1/C=C/C(=C1/C(=O)N(c2ccccc2)N=C1C)c1ccc(C)cc1,6.0,10.3%,6.4%,-15.9%[15.4 µM],x,-4.9,-17.1
COC(=O)c1sc(N)c(C(=O)OC)c1COC(=O)C12CC3CC(CC(O)(C3)C1)C2,-0.4,-3.2%,17.2%,15.2%,x,28.4,21.8
CC1CCc2sc(C(=O)NC(C)C3CCCO3)cc2C1 (stereo not given),x,-1.8%,0.2%,-32.0%[inhibitor],-1.9%,7.1,-2.3
CCOc1ccccc1-c1nc(C(N)=O)c2[nH]c(=O)n(-c3ccc(F)cc3)c2n1,u,-4.6%,26.2%,2.0%,5.2%,-0.7,4.7
Cc1ccc(C(C(=O)NC2CCCC2)N(CCCO)C(=O)Cn2nnc(-c3ccc(C)o3)n2)cc1 (stereo not given),6.4,0.1%,12.8%,-12.3%,x,-1.9,5.2
COc1ccc(C)cc1N(CC(=O)N1CCCCCC1)S(=O)(=O)c1ccccc1,x,-4.2%,4.7%,-0.8%[15.4 µM],x,-8.1,7.5
CC(C)[C@H](NC(=O)c1ccccc1)C(=O)OCc1nnc(-c2ccccc2)o1,0.4,-0.4%,15.9%,-0.3%[15.4 µM],x,0.1,-4.7
CCOC(=O)c1ccc(NC(=S)NCc2ccccc2)cc1,-0.8,-9.8%,-4.6%,-14.9%,-0.9%,-6.7,20.5
Cc1cc(=O)oc2cc(NC(=O)C(C)Oc3ccccc3)ccc12 (stereo not given),x,0.6%,x,-4.4%[15.4 µM],28.2µM*,-6.3,56.0
COc1ccc(-c2noc3c2-c2nc(-c4ccccc4C)sc2CC3)cc1,x,-4.7%,x,x,25.1µM*,x,2.7
Cc1coc2c(C)c3oc(=O)c(CCC(=O)NCCCN4CCOCC4)c(C)c3cc12,-6.7,-3.8%,0.9%,x,4.3%,-7.5,x
Cc1cccc(Oc2ccc(NC(=O)c3ccccc3C(=O)O)cc2)c1C,-3.7,-11.7%,2.6%,10.7%[15.4 µM],x,16.5,26.2
CCN(CC1COc2ccccc2O1)C(=O)CN1C(=O)NC(C)(c2ccc(C)cc2)C1=O (stereo not given),x,-8.3%,x,6.4%[15.4 µM],1.8%,u,2.9
Cc1nnc(SCC(=O)NC2CC2)n1CC1CCCO1 (stereo not given),-0.2,12.7%,0.8%,-10.6%,-1.3%,u,4.5
CCOC(=O)C1=C(C)N(CCO)C(=O)NC1c1ccccc1 (stereo not given),1.3,2.7%,5.3%,-8.5%,-2.0%,4.8,-0.4
Cc1cccn2cc(CNC(=O)c3ccco3)nc12,-1.1,-0.3%,8.7%,-18.9%,-3.8%,14.4,-10.6
CN1C(C(=O)N2CCc3ccccc3C2)=CC(c2ccc(F)cc2)=NS1(=O)=O,u,-23.4%,12.6%,20.3%,-18.4%,-0.1,28.6
O=c1cc(CSc2ccccc2)[nH]c2ccccc12,-1.3,-16.6%,-3.6%,u,-1.3%,-1.1,2.7
NS(=O)(=O)c1ccc(CCNC(=O)CN2CCN(c3ccccc3F)CC2)cc1,5.1,10.9%,13.6%,u,-1.5%,-5.9,18.6
Clc1cccc(C[n+]2cc(-c3ccccc3)n3c2CCC3)c1,3.4,-6.9%,-3.1%,12.5%,0.7%,16.1,-20.1
CSCC[C@H](NC(=O)[C@H](Cc1ccccc1)n1c(=O)[nH]c2ccccc2c1=O)C(=O)N1CCC(C(=O)O)CC1,2.6,-0.7%,15.5%,x,-18.0%,-13.8,x
COC(=O)c1sccc1NC(=O)c1cccs1,5.0,-19.2%,15.0%,5.9%,-7.0%,-8.6,23.6
C=CCON1C(=O)c2ccccc2C1=O,1.7,2.2%,-3.2%,-26.9%,-26.3%,7.5,14.3
Cc1cccc(C(=O)Nc2cccnc2Cl)c1,-0.2,5.5%,2.0%,u,x,7.4,-10.1
CN(CC(=O)Nc1ccccc1Br)C(=O)c1cccn1C,x,5.7%,x,6.2%[15.4 µM],-4.4%,-0.3,-10.9
O=C1CCC(C(=O)N2CCCC(Nc3ccc(F)cc3)C2)=NN1 (stereo not given),-6.4,6.7%,14.0%,6.6%[15.4 µM],-2.3%,3.6,11.0
O=[N+]([O-])c1cc(Cl)cc(/C=N/n2cnnc2)c1O,9.7,-3.8%,22.6%,-34.7%[15.4 µM],-2.1%,1.7,32.9
O=C(Oc1ccc(C(=S)N2CCOCC2)cc1Cl)c1ccccc1F,5.7,-4.8%,56.2µM*,-17.7%,-1.4%,16.4,7.8
CC1CCN(C2CC(=O)N(c3ccccc3)C2=O)CC1 (stereo not given),-1.5,5.8%,-14.2%,2.8%,x,-2.0,-16.9
CCOC(=O)Nc1ccc2ncn(C)c(=O)c2c1,0.7,7.7%,3.9%,24.0%,u,8.3,-0.9
Cc1cc(C)cc(NS(=O)(=O)c2ccc(NC(=S)Nc3ccccc3)cc2)c1,-0.4,13.5%,8.7%,-7.2%,3.0%,-8.0,9.5
